Ab BasE inh: inhibitors of Acinetobacter baumannii siderophore enzyme BasE. purified BasE, fluorescence polarization binding displacement. inhibition, % (test concentration not listed). actives 0.1% (n = 84,000). AID 485350;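 active = both replicates above 25% with normal brightness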;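 note: 0% = negative plate control signal and 100% = positive plate control signal; stock transfer was 100 nL into about 30 µL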
KSHV LANA nucl: LANA-nucleosome interaction inhibition; actives 0.3% (n = 51,000); z-score (test concentration not listed); FITC-LANA1-23 / chicken nucleosome fluorescence polarization; stronger effect = lower value;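 active = both repeat wells score below -2 in polarization z-score versus plate sample wells, excluding overly bright wells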;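 note: 100 nL library stock added to about 30 µL; numbers are from one replicate; some results filed as inactive read as strong as hits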
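Test system: purified chicken nucleosomes with FITC-labelled LANA N-terminal peptide (1-23); Input: 240 nM purified chicken nucleosomes (480 nM peptide binding sites), final; Medium: TEN-BT buffer, pH 7.5; Timing: 10–45 min, room temperature; Technique: fluorescence polarization, 480 nm excitation, 535 nm parallel and perpendicular emission; Replication: duplicates.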
* marks the source's active call; other numbers are inactive results; nt = no result given; & = joins results of further samples. Some of the compounds tested (hit frequency here may not be typical).

SMILES	Ab BasE inh	KSHV LANA nucl
CCOC(=O)C1CCN(c2nc3ccccc3nc2C(C#N)C(=O)NCCc2ccc(OC)c(OC)c2)CC1 (stereo not given)	5.5	nt
CC1=NN(c2ccccc2)C(=O)C1(C)N (stereo not given)	-1.9	0.365
CCCSc1nc(C)c(CC(=O)O)c(=O)[nH]1	-0.2	0.178
C/C(=N\NC(=O)c1ccco1)c1ccc(C)o1	-1.4	-0.51
CN1C(=O)NC(=O)/C(=C/c2ccc(N(C)C)cc2)C1=O	9.5	-0.307
Cc1ccc(S(=O)(=O)N2CCC[C@H]2C(=O)OCC(=O)N2c3ccccc3NC(=O)C2(C)C)cc1	1.8	nt
Cc1ccc(-n2nc(C)c3c(C)onc3c2=O)cc1	2.0	nt
CC1CN(c2ccc(NC(=S)NCc3ccco3)cc2)CC(C)O1 (stereo not given)	-1.2	nt
O=S(=O)(Cc1ccccc1)c1ccc(C(F)(F)F)cn1	1.4	nt
Cc1[nH]c2nc3ccccc3n2c(=O)c1CCC(C)C	4.2	-0.34
O=C(O)CCNC(=O)c1cccnc1	1.8	nt
COc1ccc(NC2=NS(=O)(=O)C(c3ccccc3)=C2C)cc1	4.3	-0.724
Cn1cc(S(=O)(=O)Nc2ccc(Oc3c(Cl)cccc3Cl)nc2)cn1	-0.2	nt
O=C(NCC1COc2ccccc2O1)c1cccs1 (stereo not given)	1.8	nt
COc1ccc2cc(C(=O)O)ccc2c1	1.6	-0.819
c1ccc(-c2noc(NC3CC3)n2)cc1	2.5	-0.0655
Clc1ccc(Cn2nnc3ccccc32)cc1Cl	-3.6	-0.758
COc1cc(/C=C/C(=O)O)ccc1O	4.4	-0.186
CC(=N)c1c(O)c2ccccc2oc1=O	-0.9	0.268
COc1cccc(CN(C)C(=O)c2cc3ccccc3cc2OCc2c(C)noc2C)c1OC	1.9	nt
COc1ccc(CC(NC(C)=O)C(=O)NC2CCN(c3nc(OC)nc(OC)n3)CC2)cc1 (stereo not given)	-0.3	-0.231
COC(=O)C1=C(NC(=O)Cc2cccs2)CCS1	1.6	-1.92
O=C(CCCn1c(=O)oc2ccccc21)NNc1c(F)c(F)cc(F)c1F	-2.1	nt
N#Cc1ccc(N2C(=O)CSC(c3ccccc3)C2=O)cc1 (stereo not given)	nt	-1.39
Cc1ccc(C(C)C)c(OCC(=O)OCC(N)=O)c1	0.6	nt
COc1ccc(OCC(=O)NN)cc1	2.2	-0.056
CCS(=O)CCSc1nc(-c2cccs2)cc(C(F)(F)F)c1C#N (stereo not given)	-2.1	-0.358
COc1ccc(OC)c(C(=O)Cn2cnc3sccc3c2=O)c1	-7.8	nt
N#Cc1ccc(COC(=O)c2ccc(-n3cnc4ccccc43)cc2)cc1	-5.6	nt
COc1ccc(-c2noc(N3CCC(C(=O)N(C)c4ccccc4C)CC3)n2)cc1	-0.6	0.337
O=C(CSc1ncnc2c1oc1ccccc12)Nc1ccc(F)cc1	-0.9	-0.243
O=C(Cc1cc(=O)[nH][nH]1)N/N=C/C=C/c1ccccc1	3.8	-0.284
CCOC(=O)c1noc2ncnc(N3CCc4ccccc43)c12	-0.2	0.622
Cc1occc1C(=O)Nc1ccc(N(C)C)cc1	2.6	nt
COc1cccc(OC)c1C(=O)OCc1ccccc1C#N	-5.1	nt
Cc1csc(C(C#N)C(=O)CSc2nc3cc(Cl)ccc3s2)n1 (stereo not given)	-1.9	nt
COc1ccc(-c2nc(C(N)=O)c3[nH]c(=O)n(CC4CCCO4)c3n2)cc1O (stereo not given)	-2.2	2.86
O=C(Nc1ccncc1)c1cccc(S(=O)(=O)N2CCCC2)c1	-0.2	nt
CCOC(=O)c1noc2nc(C)nc(NCCN3CCOCC3)c12	-1.4	2.69
Cc1c(O)c(-c2ccccc2)c(=O)n(-c2ccccn2)c1-c1ccccc1	1.8	nt
COc1cc(CN(C)C(=O)CN2C(=O)C3C4C=CC(C4)C3C2=O)ccc1OC(F)F (stereo not given)	1.1	nt
O=C(Nc1ccc(F)cc1)N1CCCN(c2ccc(C(F)(F)F)cn2)CC1	nt	-1.06
O=C(O)C1CCC(C(=O)O)C1 (stereo not given)	-0.1	0.343
CCOC(=O)N/N=C/c1ccc(Sc2ccc(Cl)cc2)o1	-0.5	-0.15
CCCN1CCC2(CC1)C1CN(CCC)CC=C1C(C#N)=C(N)C2(C#N)C#N (stereo not given)	4.2	-1.3
CC(CN1c2ccccc2Sc2ccccc21)N(C)C (stereo not given)	0.7&0.4	0.249&-0.181&-0.17&0.066
CCc1nnc2c(Nc3ccc(F)cc3)nc3ccccc3n12	0.9	-0.477
COc1ccc(OCCOc2ccccc2F)cc1	-0.1	-1.39
CCOC(=O)NC(=O)c1cn(Cc2ccco2)c(=O)[nH]c1=O	3.9	-1.04
Cc1noc(C)c1CC(=O)Nc1ccccc1N1CCCCC1	-2.7	nt
CC(=O)N1N=C(c2c(-c3ccccc3)c3cc(Cl)ccc3n(C)c2=O)CC1c1ccco1 (stereo not given)	-0.6	1.49
CC(C(=O)Nc1ccc(S(=O)(=O)N2CCOCC2)cc1)N1CCN(c2ccccn2)CC1 (stereo not given)	1.5	nt
Cc1ccc(-c2c(C)sc3ncn(CC(=O)O)c(=O)c23)cc1C	1.9	nt
c1ccc(Cn2c(NCc3cccs3)nc3ccccc32)cc1	-0.5	-0.094
O=C(COC(=O)Cc1cccs1)NCc1ccc2c(c1)OCO2	1.7	nt
CCC1CCCCN1C(=O)c1cc(-c2ccc(F)cc2)no1 (stereo not given)	2.8	-0.64
CC(O)Cn1c(N(C)Cc2ccccc2)nc2c1c(=O)n(C)c(=O)n2C (stereo not given)	-0.5	-0.82
CN1CCc2c(sc(N)c2C(=O)c2ccc(Cl)cc2)C1	nt	1.42
CC1CCCC(NC(=O)CSc2ncn[nH]2)C1C (stereo not given)	0.4	nt
COc1cc2cc(CN(Cc3ccc4c(c3)OCO4)C(=O)NCc3ccccc3)c(=O)[nH]c2cc1OC	15.4	-0.619
More structures:
SMILES	Ab BasE inh	KSHV LANA nucl
COc1cc(NC(=O)COc2ccc(F)cc2)nc(OC)n1	3.1	nt
COc1cc(Cl)c(C)cc1NC(=O)Cn1c(=O)c2c(ncn2CC(C)C)n(CC(C)C)c1=O	2.2	nt
O=C(O)CC1SC(=Nc2ccc(O)cc2)NC1=O (stereo not given)	1.6	-0.391
NNc1cccc(Cl)n1	nt	-1.76
COc1ccc(OC)c(C2c3cccn3CCN2S(=O)(=O)c2ccccc2C(F)(F)F)c1 (stereo not given)	-1.9	2.45
CC1CC[C@@H]2N(C1)CC1C(CC[C@H]3C4CC(=O)[C@H]5CC(=O)CCC5(C)[C@H]4C[C@@H]13)[C@]2(C)O (stereo not given in full)	-2.9	1.92
COc1ccc(-c2nc(/C=C/C(=O)O)cs2)cc1	1.3	nt
CNC(=O)NC(=O)COc1ccc2oc3c(c2c1)CCCC3	2.2	nt
COc1ccc(/C=N/NC(=O)c2ccc(Cl)c(S(N)(=O)=O)c2)cc1OCC(N)=O	1.2	nt
O=C(COc1ccc(-n2cnnn2)cc1)NCCC1=CCCCC1	-0.7	nt
Cc1cc(C(=O)CN2CCN(C(=O)c3cccs3)CC2)c(C)n1-c1ccc(S(N)(=O)=O)cc1	1.6	nt
CCOC(=O)/C=c1\s/c(=C\c2cccs2)c(=O)n1CC(=O)N(C)C	2.3	nt
CCCN(CC(=O)Nc1ccc(Cl)cc1Cl)Cn1nnc2ccccc21	3.1	nt
CC(Cc1nnc(SCC(=O)Nc2ccc(Cl)cn2)n1N)c1ccccc1 (stereo not given)	2.2	nt
CN(c1nnc(NC(=O)Nc2ccccc2)s1)C1CCCCC1	-0.5	-0.796
CC(=O)OCCn1c(=O)[nH]c(=O)c2nsnc21	1.9	nt
S=C(NN=C1CCCCC1)NC1CCCCC1	0.0	nt
COC(=O)COc1cccc2c(=O)n(CC(=O)N3CCCc4ccccc43)ccc12	-2.8	-0.512
O=C1/C(=N\O)c2cccc3cccc1c23	11.3	0.13
N#Cc1oc2ccccc2c1N=Cc1c(O)n(-c2cccc(C(F)(F)F)c2)c(=O)c2ccccc12	1.2	nt
O=S(=O)(N/N=C/c1ccc(N2CCOCC2)cc1)c1ccccc1	-0.7	nt
CCOC(=O)/C(C#N)=C/c1cn(CCOc2ccccc2)c2ccccc12	0.9	0.445
O=c1c(-c2ccc(O)cc2)coc2cc(O)ccc12	1.5	-1.01
O=C(O)c1ccccc1C(=O)N1CCN(c2ncccn2)CC1	0.0	nt
COc1ccc(Cn2nnc3c(=O)[nH]c(C(=O)NCCc4ccc(F)cc4)nc32)cc1OC	1.3	0.01
O=C(C1CC(=O)N(C2CCCC2)C1)N1CCC(Cc2ccccc2)CC1 (stereo not given)	-0.6	-0.971
Cc1oc(C(=O)O)cc1COc1ccccc1Cl	1.1	0.253
O=C(Nc1ccc(Cl)cc1)C(O)c1ccccc1 (stereo not given)	0.4	0.819
NS(=O)(=O)c1ccc(NC(=O)CSC2CCCCC2)cc1	2.6	nt
C=CCN1C(=O)NC2(CCCCC2)C1=O	3.2	nt
CC1CN(C(=O)C2CCCO2)CC(C)O1 (stereo not given)	2.7	-0.873
Cc1nn(CCCC(=O)NC2CCCCC2)c(=O)c2nccn12	-0.3	-1.26
Cc1ccc(C2=NN(C(=O)CNc3ccc(S(=O)(=O)N4CCCC4)cc3)C(c3ccco3)C2)cc1 (stereo not given)	-0.7	nt
O=C(COc1nc2ccccc2nc1N1CCOCC1)NCCc1ccc(F)cc1	1.3	nt
NC(=O)c1cc(S(=O)(=O)N2CCc3ccccc32)cs1	0.8	-0.978
CNC(=O)Nc1ccc(C(C)(C)C)cc1Br	0.9	nt
Cc1oc(-c2ccc(Cl)cc2)nc1CS(=O)CC(=O)NC(C)C (stereo not given)	-5.4	2.11
CC(C(=O)NC1CCCC1)n1cc(Br)ccc1=O (stereo not given)	2.6	nt
CCOC(=O)c1c(CSc2nnc(Cc3csc(C)n3)o2)nc2ccccc2c1C	-0.8	nt
CCOC(=O)CCc1c(C)c(C#N)c2nc3ccccc3n2c1Cl	-2.2	nt

An excerpt of these results, with two lines to a compound.
Screens in order: Ab BasE inh, KSHV LANA nucl
COc1ccc(Cn2nnc3c(=O)[nH]c(C(=O)NCCc4ccc(F)cc4)nc32)cc1OC
  1.3, 0.01
O=C(C1CC(=O)N(C2CCCC2)C1)N1CCC(Cc2ccccc2)CC1 (stereo not given)
  -0.6, -0.971
Cc1oc(C(=O)O)cc1COc1ccccc1Cl
  1.1, 0.253
O=C(Nc1ccc(Cl)cc1)C(O)c1ccccc1 (stereo not given)
  0.4, 0.819
NS(=O)(=O)c1ccc(NC(=O)CSC2CCCCC2)cc1
  2.6, nt
C=CCN1C(=O)NC2(CCCCC2)C1=O
  3.2, nt
CC1CN(C(=O)C2CCCO2)CC(C)O1 (stereo not given)
  2.7, -0.873
Cc1nn(CCCC(=O)NC2CCCCC2)c(=O)c2nccn12
  -0.3, -1.26
Cc1ccc(C2=NN(C(=O)CNc3ccc(S(=O)(=O)N4CCCC4)cc3)C(c3ccco3)C2)cc1 (stereo not given)
  -0.7, nt
O=C(COc1nc2ccccc2nc1N1CCOCC1)NCCc1ccc(F)cc1
  1.3, nt
NC(=O)c1cc(S(=O)(=O)N2CCc3ccccc32)cs1
  0.8, -0.978
CNC(=O)Nc1ccc(C(C)(C)C)cc1Br
  0.9, nt
Cc1oc(-c2ccc(Cl)cc2)nc1CS(=O)CC(=O)NC(C)C (stereo not given)
  -5.4, 2.11
CC(C(=O)NC1CCCC1)n1cc(Br)ccc1=O (stereo not given)
  2.6, nt
CCOC(=O)c1c(CSc2nnc(Cc3csc(C)n3)o2)nc2ccccc2c1C
  -0.8, nt

Remaining list, next part
SMILES	Ab BasE inh	KSHV LANA nucl
Cc1nc2cc(-n3c(O)c[nH]c3=O)ccc2s1	-3.4	1.86
CC(=O)OCC(=O)[C@H]1CCC2C3CCC4=CC(=O)CC[C@]4(C)C3CC[C@@]21C (stereo not given in full)	-1.8	1.15&-0.184
CCCC1(C)NC(=O)c2ccccc2O1 (stereo not given)	0.5	0.336
O=C(O)c1cc(=O)c2c(OCC(O)COc3cccc4oc(C(=O)O)cc(=O)c34)cccc2o1	2.3&-4.4	0.443&-0.127&-0.859&1.03
CCc1ccc(C2C3=C(CCCC3=O)Nc3c2c(=O)n(C)c(=O)n3C)cc1 (stereo not given)	-0.8	nt
O=C(CSc1nnnn1C1CCCC1)NN1C(=O)NC(c2ccccc2)(c2ccccc2)C1=O	-0.4	nt
C=CCn1c(Cc2csc(N)n2)nnc1SCc1ccc(C(=O)OC)cc1	-0.9	0.045
Nc1cc(=O)[nH]c(SCc2ccccc2Cl)n1	-2.4	-0.043
Cc1ccc(C(=O)N2CCc3cc(C(=O)C(C)N4CCC(C)CC4)ccc32)cc1 (stereo not given)	-2.0	-0.845
CN(Cc1nc(-c2ccccc2)no1)C(=O)CC(C)(C)C	-1.6	0.742
COC(=O)CC(=O)CSc1nc2c(cc1C#N)CCC2	-1.7	2.2
COc1ccc(-c2csc3nc(C)n(-n4cccc4)c(=O)c23)cc1	3.9	nt
CC1=CC(=O)N(c2ccc(OC(F)(F)F)cc2)C1=O	0.4	nt
Nn1c(C2CC2)nc2cc(Cl)ccc2c1=O	-2.9	0.953
c1ccc(Nc2nnc(-c3cccc4ccccc34)o2)cc1	3.1	0.0295
CC(=O)N1CCN(CCNC(=O)c2ccncc2)CC1	-0.9	1.22
CCOc1ccc(NCc2nc3ccccc3n2C)cc1	-2.4	-0.193
O=C1Nc2ccccc2/C1=C/c1ccc(-c2ccc(F)cc2)o1	-7.4	nt
C=CCNC(=S)N1CCCc2ccccc21	2.8	nt
CSc1ccccc1NC(=O)CN(C)CC(=O)Nc1ccc(N2CCOCC2)cc1	1.5	nt
Cc1nc(Sc2nnc3n2CCCCC3)c2c(-c3cccs3)csc2n1	0.7	nt

Screens (PubChem BioAssay)
